Compound activity: PubChem BioAssay, Sanford-Burnham Center for Chemical Genomics
APJ antagonist: APJ receptor antagonism. CHO-K1 APJ beta-arrestin complementation, luminescence. hit rate 0.32% among 330,000. inhibition, % at 20 µM. AID 2521. P35414;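 active = inhibition above about 40% at 20 µM, limit read from the data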;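 note: cells challenged with 10 nM apelin-13 agonist together with compound; plate controls were apelin-13 plus DMSO wells for no effect and DMSO wells lacking apelin-13 for full effect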
Target sequence (P35414 whole entry, looked up): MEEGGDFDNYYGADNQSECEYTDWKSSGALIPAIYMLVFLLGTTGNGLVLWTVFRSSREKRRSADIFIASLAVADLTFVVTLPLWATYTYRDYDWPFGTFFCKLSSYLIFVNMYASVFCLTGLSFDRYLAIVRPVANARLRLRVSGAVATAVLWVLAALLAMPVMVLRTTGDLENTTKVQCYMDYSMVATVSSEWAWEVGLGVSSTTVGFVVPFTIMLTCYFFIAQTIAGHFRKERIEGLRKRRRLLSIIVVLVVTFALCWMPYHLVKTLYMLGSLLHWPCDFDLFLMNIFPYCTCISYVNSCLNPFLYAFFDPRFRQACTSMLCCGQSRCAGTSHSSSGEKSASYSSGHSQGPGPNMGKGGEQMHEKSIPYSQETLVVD
CHOP UPR activ: activators of apoptotic arm of unfolded protein response (CHOP). CHO-CHOP luciferase reporter, UPR activation, luminescence; percent of tunicamycin response over DMSO baseline. activation, % at 10 µM. hit rate 0.34% among 330,000. AID 449763;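 active = at 10 µM dose, activation of 40% or more, normalized to positive control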;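 note: 100% = tunicamycin at 10 µg/mL and 0% = DMSO alone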
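System: CHO-CHOP luciferase reporter cell line; amount: 500 cells/well; buffer or medium: F12 medium containing 10% fetal bovine serum; incubation: 6 h compound exposure at 37 °C after overnight seeding; measured by: luciferase luminescence after 10 min with Steady-Glo reagent; evaluation: % reporter activation, DMSO baseline versus tunicamycin full activation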
UPR XBP1 act: adaptive UPR (XBP1) activation; activation, % at 20 µM; hit rate 0.33% among 330,000; AID 463104; CHO-XBP1 luciferase reporter, IRE1-XBP1 UPR activation, luminescence; percent of tunicamycin response, DMSO as zero;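 active = versus positive control, 20 µM dose yields 30% or more activation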;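 note: 100% = tunicamycin at 10 µg/mL and 0% = DMSO only wells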
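incubation = overnight seeding at 37 °C, 6 h compound treatment at 37 °C | assay system = CHO-XBP1 cells stably carrying IRE1-XBP1-driven luciferase reporter | input = 1000 cells per well | detection = luciferase luminescence | dosing = single point, 20 µM final compound, 1% DMSO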
APJ ag: activates the human apelin receptor APJ; P35414; CHO-K1 APJ PathHunter beta-arrestin, luminescence; 0% DMSO wells, 100% apelin; activation, % at 20 µM; hit rate 0.11% among 330,000; AID 2520;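 active = activation more than six SD over the plate average, tested at 20 µM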;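 note: 0% = DMSO alone and 100% = apelin-13 at 10 nM; some results filed as inactive read as strong as hits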
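Assay system: engineered CHO-K1 APJ arrestin reporter cells; Amount: 1000 CHO-K1 reporter cells seeded per well; Dosing: one dose, 20 µM compound, 1% DMSO; Times: compound stimulation 90 min at 25 °C, detection 60 min; Measured by: luminescent beta-gal fragment complementation, chemiluminescent substrate; Read-out: APJ–arrestin association signal; Controls: DMSO vs Apelin-13 10 nM.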
tim23-1 inh: inhibits growth of tim23-1 mutant yeast; S. cerevisiae tim23-1 growth, BacTiter-Glo luminescence, 24 h; inhibition, % at 20 µM; hit rate 1.3% among 330,000; AID 463212;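 active = growth inhibition of the mutant yeast at or above 50%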;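 note: temperature-sensitive mutant grown at 25 °C; plate controls were DMSO-treated mutant yeast for no effect and medium wells lacking yeast for full effect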
EBI2 block: EBI2 (human) antagonism; P32249; EBI2 beta-arrestin recruitment, luminescence, 7a,25-OHC stimulated; inhibition, % at 5 µM; hit rate 0.81% among 360,000; in the data active = inhibition above about 38%;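 note: enzyme fragment complementation signal reports receptor beta-arrestin coupling in cells; 0% = agonist plus DMSO wells and 100% = wells without agonist; some results beyond the cut were filed as inactive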
Target sequence (P32249 whole entry, looked up, the tested form may be a part): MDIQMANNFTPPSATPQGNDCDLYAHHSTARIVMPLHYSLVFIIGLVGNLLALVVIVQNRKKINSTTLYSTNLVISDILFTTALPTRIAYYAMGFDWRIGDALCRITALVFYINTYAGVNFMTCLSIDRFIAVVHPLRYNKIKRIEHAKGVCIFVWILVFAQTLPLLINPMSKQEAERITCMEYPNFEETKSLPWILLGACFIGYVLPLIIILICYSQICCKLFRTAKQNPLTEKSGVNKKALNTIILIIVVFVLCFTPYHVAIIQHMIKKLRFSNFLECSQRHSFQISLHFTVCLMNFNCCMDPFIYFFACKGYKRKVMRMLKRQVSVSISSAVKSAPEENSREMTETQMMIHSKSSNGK
Mdm2-MdmX inh: human Mdm2/MdmX binding inhibition; inhibition, % at 8 µM; SaOS-2 split-luciferase Mdm2/MdmX complementation, luminescence; O15151+Q00987; hit rate 3% among 330,000; AID 485346;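 active = inhibition of at least 50% at 8 µM in the primary screen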
* = called active by the depositor; x = not tested or not shown.

nr	compound	UPR XBP1 act	APJ antagonist	CHOP UPR activ	tim23-1 inh
1	CS(=O)(=O)c1ccc(C(=O)OCC(=O)NC(=O)Cc2ccccc2)cc1	1	12	0.6	-9
2	O=C(O)c1cc(Cl)c(Cl)cc1C(=O)N1CCCC1	2	9	0.9	5
3	O=C(Nc1nc(-c2ccco2)cs1)c1ccccc1	6	24	12	31
4	Cc1nnc(NC(=O)c2nc(S(=O)(=O)Cc3ccccc3)ncc2Cl)s1	-11	5	41*	15
5	COc1ccc(-c2cc(-c3n[nH]c(=S)n3-c3cc(OC)ccc3OC)[nH]n2)cc1	0	-23	-0.2	12
6	COc1cccc(/C=N/NC(=O)c2cccc([N+](=O)[O-])c2)c1OS(=O)(=O)c1ccccc1	-1	-4	-1.2	15
7	CC(C)CC(C(=O)N1CCOCC1)N1Cc2ccccc2C1=O (stereo not given)	-3	-2	-1.8	10
8	Cc1cc(C)c2nc(NC(=O)C3CCCO3)sc2c1 (stereo not given)	-1	-2	2.6	30

nr	Mdm2-MdmX inh	EBI2 block	APJ ag
1	-2	5	1
2	30	-7	-3
3	-8	0	-8
4	85*	-10	2
5	6	8	-2
6	6	1	-2
7	10	-8	-3
8	-187	10	-4

Next entries.
nr	compound	UPR XBP1 act	APJ antagonist	CHOP UPR activ	tim23-1 inh
9	CCN(CC)CCOCCOc1ccc(Cl)c2ccccc12	1	-8	1.5	18
10	CCCC(=O)N1CCC1(C)C(=O)Nc1ncc(C(=O)OC)s1 (stereo not given)	x	x	x	x
11	Cc1ccc(C2CC(=O)NC3=C2C(=O)CCC3)cc1Br (stereo not given)	2	15	-1.1	-6
12	COC(=O)[C@H](C(C)C)N(Cc1ccccc1)S(=O)(=O)CCNC1CCCC1	0	x	1.5	33
13	Cc1cc2ncc(-c3ncc(C(F)(F)F)cc3Cl)cn2n1	-4	-3	-4.1	10
14	CCC(C)N1CCCCC1C(=O)Nc1c(C)cc(C)cc1C (stereo not given)	1	12	1.5	6
15	Cc1ccc2c(Cl)cc(Cl)c(OCC(=O)Nc3cccc(S(N)(=O)=O)c3)c2n1	4	-6	0.5	0
16	COc1ccc(CNc2nc(NCc3ccc(OC)cc3)n(C(=O)c3ccccc3[N+](=O)[O-])n2)cc1	-1	16	6.9	20

nr	Mdm2-MdmX inh	EBI2 block	APJ ag
9	13	-12	3
10	x	-3	x
11	11	3	-3
12	24	-9	x
13	-33	-6	2
14	-25	7	-7
15	28	1	0
16	23	13	-3

Continued:
nr	compound	UPR XBP1 act	APJ antagonist	CHOP UPR activ	tim23-1 inh
17	COC(=O)C1=NN(c2ccccc2)C2C(=O)N(c3ccccc3OC)C(=O)C12 (stereo not given)	1	5	5.8	18
18	O=S(=O)(Nc1ccc2c(c1)nc1n2CCOC1)c1ccc(Cl)cc1	0	-12	-2.6	4
19	CCC(=O)Nc1ccc(C(=O)N/N=C/c2c(C)[nH]c3ccccc23)cc1	1	-13	2.5	17
20	CC(C)CCN1CCN(C/C=C/c2ccco2)CC1CCO (stereo not given)	0	1	1.2	6
21	CCOc1ccccc1NC(=O)c1nc(S(=O)(=O)Cc2cccc(C)c2)ncc1Cl	-10	19	-10	81*
22	COC(=O)c1sc(SC)c2c1CC(C)(C)C/C2=N/O	0	23	0.4	21
23	O=C(N/N=C/c1cc([N+](=O)[O-])ccc1O)Nc1ccccc1	-1	3	0.5	8
24	O=c1c2c(nc3c(-c4ccc(Cl)cc4)c[nH]n13)CCC2	4	2	2.6	1

nr	Mdm2-MdmX inh	EBI2 block	APJ ag
17	-27	-9	2
18	-9	-7	0
19	-5	-7	-2
20	-15	2	4
21	100*	73*	-5
22	6	-4	-2
23	-8	28	-4
24	35	-9	0

Other results follow.
nr	compound	UPR XBP1 act	APJ antagonist	CHOP UPR activ	tim23-1 inh
25	COc1cc(OC)c(C(=O)NNC(=O)c2ccccc2-n2cccc2)cc1OC	-1	1	0.3	6
26	CC(=O)NC1C(=O)N=C(SCC(=O)Nc2sc3c(c2C#N)CCCCCC3)NC1=O (stereo not given)	1	-6	0.2	7
27	CCOc1ccc(OCCC(=O)OCC(=O)NC(C)c2ccccc2)cc1 (stereo not given)	-2	-44	-0.1	7
28	Cc1cccc(CS(=O)(=O)c2ncc(Cl)c(C(=O)Nc3c(C)cccc3C)n2)c1	-2	29	26	56*
29	CC(=O)NS(=O)(=O)c1cccnc1Nc1ccc(Cl)cc1	-5	-9	1.4	-4
30	COc1ccc(-c2nnc(-c3ccc(C)cc3)o2)cc1	1	-22	2.0	41
31	Clc1ccccc1-c1nc(-c2ccccc2)n[nH]1	5	2	2.3	25
32	Cc1ccc(-c2c(NCCc3ccccc3)c(=O)c2=O)cc1	3	7	1.9	20

nr	Mdm2-MdmX inh	EBI2 block	APJ ag
25	13	-3	-2
26	2	7	-3
27	1	3	8
28	94*	44	4
29	25	4	-2
30	-167	21	-5
31	-79	2	-2
32	17	3	-5

Compounds above containing four or more nitrogen atoms (seven):
nr	compound	UPR XBP1 act	APJ antagonist	CHOP UPR activ	tim23-1 inh
4	Cc1nnc(NC(=O)c2nc(S(=O)(=O)Cc3ccccc3)ncc2Cl)s1	-11	5	41*	15
5	COc1ccc(-c2cc(-c3n[nH]c(=S)n3-c3cc(OC)ccc3OC)[nH]n2)cc1	0	-23	-0.2	12
13	Cc1cc2ncc(-c3ncc(C(F)(F)F)cc3Cl)cn2n1	-4	-3	-4.1	10
16	COc1ccc(CNc2nc(NCc3ccc(OC)cc3)n(C(=O)c3ccccc3[N+](=O)[O-])n2)cc1	-1	16	6.9	20
19	CCC(=O)Nc1ccc(C(=O)N/N=C/c2c(C)[nH]c3ccccc23)cc1	1	-13	2.5	17
23	O=C(N/N=C/c1cc([N+](=O)[O-])ccc1O)Nc1ccccc1	-1	3	0.5	8
26	CC(=O)NC1C(=O)N=C(SCC(=O)Nc2sc3c(c2C#N)CCCCCC3)NC1=O (stereo not given)	1	-6	0.2	7

nr	Mdm2-MdmX inh	EBI2 block	APJ ag
4	85*	-10	2
5	6	8	-2
13	-33	-6	2
16	23	13	-3
19	-5	-7	-2
23	-8	28	-4
26	2	7	-3

The list goes on:
nr	compound	UPR XBP1 act	APJ antagonist	CHOP UPR activ	tim23-1 inh
33	Nc1ccc(C(=O)Oc2ccc([N+](=O)[O-])cc2)cc1	3	12	6.9	7
34	CC1=C(C(=O)Nc2cccnc2)C(c2ccncc2)n2nnnc2N1 (stereo not given)	0	4	-0.4	9
35	O=C(N/N=C/c1ccoc1)c1ccc(Br)cc1	0	1	5.6	10
36	CC(=O)N/C(=C\c1ccccc1)C(=O)OC(C)C(=O)Nc1ccccc1F (stereo not given)	-1	-2	0.1	-6
37	CCN(c1cccc(C)c1)C(C(=O)Nc1ccc(OC)cc1)c1cc2c(cc1[N+](=O)[O-])OCO2 (stereo not given)	0	-52	-0.4	24
38	O=C(NNC(=O)c1ccccc1-n1cccc1)c1cccnc1	x	x	x	x
39	CCCc1ccc(S(=O)(=O)NCC2CCCN2CC)cc1 (stereo not given)	x	x	x	x
40	Cc1cc2c(cc1S(=O)(=O)N(C)c1ccccc1)NC(=O)CO2	-1	1	-0.8	2

nr	Mdm2-MdmX inh	EBI2 block	APJ ag
33	-44	8	-1
34	-5	-6	-1
35	-7	-1	9
36	-1	0	-2
37	-6	2	8
38	x	-8	x
39	x	0	x
40	17	26	-1

Continuation.
nr	compound	UPR XBP1 act	APJ antagonist	CHOP UPR activ	tim23-1 inh
41	COc1ccc(S(=O)(=O)N(CCN2CCOCC2)Cc2cc(OC)ccc2OC)cc1	0	3	1.2	1
42	CC(=O)c1cccc(S(=O)(=O)NC2CCSc3ccccc32)c1 (stereo not given)	-2	5	1.0	21
43	COc1ccc(C(=O)NC(=S)NNC(=O)COc2ccccc2)cc1	-4	28	-3.2	19
44	O=C(COC(=O)CCC(=O)c1ccc(F)cc1)Nc1ccc(F)cc1F	-2	3	-0.8	-12
45	CCCCN1CNC(=S)N(c2ccccc2OCC)C1	2	-4	0.1	10
46	CC(/C=C/c1ccccc1)=N/NC(=O)c1cc([N+](=O)[O-])cc([N+](=O)[O-])c1	x	x	x	x
47	COc1ccc(NC(=O)Nc2c(C)n(C)n(-c3ccccc3)c2=O)c(OC)c1	2	13	-0.6	-4
48	COc1ccccc1NC(=O)c1ccc(-c2ccccc2[N+](=O)[O-])o1	1	-8	4.3	33

nr	Mdm2-MdmX inh	EBI2 block	APJ ag
41	-1	2	-1
42	4	1	3
43	14	10	-4
44	28	-2	-1
45	-8	-4	-2
46	x	-5	x
47	-13	2	2
48	-66	-4	1

Following part.
nr	compound	UPR XBP1 act	APJ antagonist	CHOP UPR activ	tim23-1 inh
49	COc1ccc(NC(=O)/C(C#N)=C\c2ccc(Br)o2)cc1	1	10	5.9	-25
50	Cc1cc(C)c(NC(=S)N2CCCC2C(=O)O)c(C)c1 (stereo not given)	0	6	3.2	11
51	COc1ccc(NC(=O)Nc2ccc3nccnc3c2)cc1	2	9	-0.3	-1
52	CC1(C)Cc2ccccc2C(/C(C#N)=N/O)=N1	4	-13	0.8	10
53	COc1ccc2cc(C#N)c(N3CCN(Cc4nnnn4CCC(C)C)CC3)nc2c1	-1	-3	1.1	17
54	O=C(NCc1ccccn1)c1ccc2c(=O)n(CCc3ccccc3)c(=O)[nH]c2c1	-3	5	3.2	-21
55	CSc1cc(C)n(-c2ccc(Cl)cc2)c(=S)c1C(C)=O	-1	15	-0.5	16
56	O=C(COc1ccc2ccccc2c1)N/N=C/c1ccccn1	4	-13	4.0	38

nr	Mdm2-MdmX inh	EBI2 block	APJ ag
49	-4	2	-1
50	23	4	-3
51	-35	5	3
52	-20	-11	-2
53	42	19	-4
54	6	3	1
55	19	-7	3
56	-36	9	-3

The list goes on.
nr	compound	UPR XBP1 act	APJ antagonist	CHOP UPR activ	tim23-1 inh
57	O=C(N/N=C/c1ccc([N+](=O)[O-])cc1)c1ccc(NS(=O)(=O)c2cccs2)cc1	-3	-38	0.3	2
58	CC(C)(C)C(=O)NC(NC(=S)Nc1sc2c(c1C#N)CCCC2)C(Cl)(Cl)Cl (stereo not given)	-2	22	-1.3	6
59	Cc1cccc(/C=C2/Sc3ccc(C(=O)N4CCOCC4)cc3NC2=O)c1	-4	0	0.2	11
60	O=C(CSc1nccn1-c1ncc(C(F)(F)F)cc1Cl)c1ccc(Cl)cc1	0	-1	4.1	28
61	FC(F)(F)c1ccc(Cl)c(NC(=S)N/N=C/c2ccccc2C(F)(F)F)c1	0	14	0.8	0
62	COC(=O)C1CCN(c2nc3ccccc3nc2C(C#N)C(=O)OCC(C)C)CC1 (stereo not given)	0	-2	0.7	17
63	CC(=O)Nc1ccc(S(=O)(=O)NCCC(=O)OCCN2C(=O)c3ccccc3C2=O)cc1	2	6	-0.7	6
64	CC1(C)Cc2c(C#N)c(SCC(=O)c3ccccc3)nc(N3CCOCC3)c2CO1	-1	9	3.2	35

nr	Mdm2-MdmX inh	EBI2 block	APJ ag
57	-13	-4	3
58	39	0	-9
59	31	3	-1
60	42	-6	-4
61	2	20	-7
62	-1	26	0
63	-7	1	-1
64	4	-9	2

(next part)
nr	compound	UPR XBP1 act	APJ antagonist	CHOP UPR activ	tim23-1 inh
65	Fc1ccc(-n2ncc3c(SCc4cccnc4)ncnc32)cc1	3	-3	2.8	23
66	Cc1ccc(O)c(NC(=S)NC(=O)c2ccccc2Cl)c1	2	9	3.3	29
67	COc1ccc(C(=O)N2CCN(c3ncccn3)CC2)cc1[N+](=O)[O-]	1	1	-0.4	-1
68	CC1CCc2sc(NC(=S)NC(=O)c3ccccc3)c(C#N)c2C1 (stereo not given)	8	10	0.2	14

nr	Mdm2-MdmX inh	EBI2 block	APJ ag
65	-125	4	-4
66	-4	14	-5
67	2	14	-2
68	-11	2	-5

An excerpt; count on the stated rates, not on these rows.
